Anthrax LT inh – inhibitors of anthrax lethal toxin internalization. Cells, anthrax lethal toxin internalization, FRET ratio (460/530). Potency, µM (series often up to 40 µM), without a hit: top-dose activity change, negative = inhibition, most hits filed as inhibitors. 0.67% of 70,000 active; active = well fitted falling ratio curve with the 530 nm signal flat; inconclusive = other ratio curves, or a change in one channel alone; inactive = flat curves in the ratio and both channels; the % refers to the ratio; also: % is scaled to controls: 0 for no effect and ±100 for the full control effect; nearly all actives have a fitted effect of over 50% in size; tested in ME-180 cells; beta-lactamase reporter
SmPrx2 inh – Schistosoma mansoni Prx2 inhibition. Potency, µM. 0.07% of 65,000 active. S. mansoni Prx2 activity coupled to TGR/GSH (TGR is thioredoxin glutathione reductase), NADPH fluorescence loss, qHTS; some inactives read as strong as hits; active means full or partial inhibition curve with a strong effect at the top dose; inconclusive means weaker partial or single-point curve; inactive means no accepted curve; also: series up to 57 µM; many of its hits are not listed in these tables
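Purified S. mansoni TGR and Prx2 in pH 7.4 phosphate buffer with EDTA and Tween-20 were preincubated with compounds for 15 min. Further NADPH/GSH was added, then a 2.5 mM H2O2 aliquot initiated turnover, followed kinetically by NADPH fluorescence.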
* = called active by the depositor; ? = inconclusive; / = no result given; [ ] = dose if it differs, or a comment. Potency is read from the fitted curve at half-maximal effect.

smiles: COc1ccc(C2C=C(c3ccc(Br)cc3)Nc3nc(N4C(=O)CCC4=O)nn32)cc1 (centres undefined)
  Anthrax LT inh = ?
  SmPrx2 inh = >57
smiles: COCCNC(=O)C(C)N(c1ccc(Oc2ccccc2)cc1)S(C)(=O)=O (centres undefined)
  Anthrax LT inh = 2%
  SmPrx2 inh = /
smiles: O[C@@H]1[C@@H]2c3cc4c(cc3CN3CCC(=C[C@@H]1O)[C@H]23)OCO4
  Anthrax LT inh = -15%[3.58 µM]
  SmPrx2 inh = >57
smiles: CN1CCN(c2nc3c(c(=O)[nH]c(=O)n3C)n2CCSc2nc3ccccc3s2)CC1
  Anthrax LT inh = 9%
  SmPrx2 inh = >57
smiles: COc1cccc([C@@H]2Oc3ccc(OC)cc3/C(=N/O[C@@H](C)c3cc(-c4c(C)cc(C)cc4C)no3)[C@@H]2O)c1
  Anthrax LT inh = -5%[8 µM]
  SmPrx2 inh = /
smiles: Nc1nnc(CCN2CCCCC2)s1
  Anthrax LT inh = 2%
  SmPrx2 inh = >57
smiles: COc1ccc(Cn2nnnc2C(c2cc(OC)ccc2OC)N2CCC(C(N)=O)CC2)cc1 (centres undefined)
  Anthrax LT inh = 5%
  SmPrx2 inh = >57
smiles: CCOC(=O)c1cnc(SCC(=O)Nc2ccc(NC(C)=O)c(OC)c2)nc1N
  Anthrax LT inh = -3%
  SmPrx2 inh = >57
smiles: CCOC(=O)C12CNC(=O)C(C(=O)OCC)(CNC1=O)C2
  Anthrax LT inh = 6%
  SmPrx2 inh = >57
smiles: COc1ccc([C@H](O)c2ccccn2)cc1
  Anthrax LT inh = -7%[8 µM]
  SmPrx2 inh = >57
smiles: O=C(NC1CCCC1)C(c1cccs1)N(Cc1ccco1)C(=O)Cn1nnc(-c2cccs2)n1 (centres undefined)
  Anthrax LT inh = 6%
  SmPrx2 inh = >57
smiles: COc1cccc(NC(=O)CN2CCN(S(=O)(=O)c3ccc(C(C)C)cc3)CC2)c1
  Anthrax LT inh = -17%
  SmPrx2 inh = >57
smiles: O=C(O)c1ccc(C2SCC(=O)N2Cc2ccccc2)cc1 (centres undefined)
  Anthrax LT inh = -16%
  SmPrx2 inh = >57
smiles: CC(NC(=O)COc1ccccc1)C1COc2ccccc2O1 (centres undefined)
  Anthrax LT inh = -8%
  SmPrx2 inh = >57
smiles: COc1cccc(-c2nc(CS(=O)(=O)CC(=O)Nc3cc(C)ccc3C)c(C)o2)c1
  Anthrax LT inh = -10%
  SmPrx2 inh = >57
smiles: COc1ccc2c(c1OC)C(=O)N(c1ncn[nH]1)C2
  Anthrax LT inh = -6%
  SmPrx2 inh = /
smiles: O=C1Nc2cc3c(cc2Sc2ccccc21)OCCO3
  Anthrax LT inh = 18%
  SmPrx2 inh = >57
smiles: Cc1ccccc1-n1c(=O)cc(NCC2CCCO2)[nH]c1=O (centres undefined)
  Anthrax LT inh = -13%
  SmPrx2 inh = >57
smiles: Cc1c(OC(=O)CNC(=O)OC(C)(C)C)ccc2c3c(c(=O)oc12)CCC3
  Anthrax LT inh = 3%
  SmPrx2 inh = ?
smiles: Brc1ccc(OCCn2ccnc2)cc1
  Anthrax LT inh = -10%
  SmPrx2 inh = /
smiles: CCOc1ccc(NC(=O)c2ccccc2CO)cc1
  Anthrax LT inh = 16%
  SmPrx2 inh = >57
smiles: CCOC(=O)c1c(COC(=O)c2ccco2)nc2ccccc2[n+]1[O-]
  Anthrax LT inh = -19%
  SmPrx2 inh = >57
smiles: O=C(CC1c2ccccc2Oc2ccccc21)N1CCN(c2ccccn2)CC1
  Anthrax LT inh = -24%
  SmPrx2 inh = >57
smiles: O=C(NCC1CCCO1)c1ccccc1-c1nc(-c2ccc(F)cc2)no1 (centres undefined)
  Anthrax LT inh = -19%
  SmPrx2 inh = >57
smiles: CCN(CC)c1ccc(-c2nn3c(-c4ccccc4OC)nnc3s2)cc1
  Anthrax LT inh = ?
  SmPrx2 inh = >57

Record cards (already shown). Order of values: Anthrax LT inh, SmPrx2 inh
COc1cccc(-c2nc(CS(=O)(=O)CC(=O)Nc3cc(C)ccc3C)c(C)o2)c1 is listed as -10%, >57
CCN(CC)c1ccc(-c2nn3c(-c4ccccc4OC)nnc3s2)cc1 is listed as ?, >57
COc1cccc(NC(=O)CN2CCN(S(=O)(=O)c3ccc(C(C)C)cc3)CC2)c1 is listed as -17%, >57
CCOc1ccc(NC(=O)c2ccccc2CO)cc1 is listed as 16%, >57
O=C(CC1c2ccccc2Oc2ccccc21)N1CCN(c2ccccn2)CC1 is listed as -24%, >57

Part of the list above in order of SMILES length, high to low.
smiles: COc1ccc(Cn2nnnc2C(c2cc(OC)ccc2OC)N2CCC(C(N)=O)CC2)cc1 (centres undefined)
  Anthrax LT inh = 5%
  SmPrx2 inh = >57
smiles: CCOC(=O)c1c(COC(=O)c2ccco2)nc2ccccc2[n+]1[O-]
  Anthrax LT inh = -19%
  SmPrx2 inh = >57
smiles: O=C1Nc2cc3c(cc2Sc2ccccc21)OCCO3
  Anthrax LT inh = 18%
  SmPrx2 inh = >57

Next part
smiles: CC1(C)CC2CC(C)(CN2C(=O)c2cccs2)C1 (centres undefined)
  Anthrax LT inh = ?
  SmPrx2 inh = >57
smiles: CN=C(SCc1ccccc1)c1c(O)n(C)c(=O)n(C)c1=O
  Anthrax LT inh = 9%
  SmPrx2 inh = >57
smiles: O=C(CSc1ncnc2sc3c(c12)CCCC3)c1ccco1
  Anthrax LT inh = ?
  SmPrx2 inh = >57
smiles: COc1ccc(S(=O)(=O)N(Cc2ccccc2)Cc2nc(-c3ccccc3)no2)cc1
  Anthrax LT inh = ?
  SmPrx2 inh = >57
smiles: OCCN1CCN(c2ncnc3nc[nH]c23)CC1
  Anthrax LT inh = -15%
  SmPrx2 inh = >57
smiles: O=CNc1ccccc1Oc1ccccc1
  Anthrax LT inh = 2%
  SmPrx2 inh = >57
smiles: Cc1ccc2c(c1)N(CC(=O)NCCc1c[nH]c3ccccc13)C(=O)CO2
  Anthrax LT inh = 1%
  SmPrx2 inh = >57
smiles: CCOC(=O)N1CCN(C(=O)c2ccc3nc4cc(Cl)ccc4c(=O)n3c2)CC1
  Anthrax LT inh = 8%
  SmPrx2 inh = >57
smiles: COc1ccc(-n2c(=O)c(-c3cn(C)c4ccccc34)nc3cnc(OC)nc32)cc1
  Anthrax LT inh = ?
  SmPrx2 inh = >57
smiles: Cc1ccc(NC(=O)Cc2cn3ccsc3n2)nc1
  Anthrax LT inh = 5%
  SmPrx2 inh = >57
smiles: COc1cc(/C=C(\C#N)C(N)=O)cc(CSc2nc3ccccc3s2)c1O
  Anthrax LT inh = ?
  SmPrx2 inh = >57
smiles: CC(=O)N1[C@H](Cc2ccccc2)C=C[C@]1(C)C(=O)NCc1ccccn1
  Anthrax LT inh = 3%
  SmPrx2 inh = /
smiles: CC(C)CC(OC(=O)c1ccco1)C(=O)NCC1CCCO1 (centres undefined)
  Anthrax LT inh = 8%
  SmPrx2 inh = >57
smiles: CCOc1ccccc1CN(CCc1ccc2c(c1)OCO2)Cc1ccccn1
  Anthrax LT inh = 1%
  SmPrx2 inh = /
smiles: CN1C(=O)c2ccccc2N(C)C1c1ccc2c(c1)OCO2 (centres undefined)
  Anthrax LT inh = 13%
  SmPrx2 inh = >57
smiles: CCCC/C=C/C(NC(=O)c1cccs1)c1ccccc1 (centres undefined)
  Anthrax LT inh = ?
  SmPrx2 inh = >57
smiles: CN(C)Cc1cc(C(C)(C)C)cc(CNC2CCCCC2)c1O
  Anthrax LT inh = ?
  SmPrx2 inh = >57
smiles: COCCCNC(=O)c1cccc(OC)c1OC
  Anthrax LT inh = -7%
  SmPrx2 inh = >57
smiles: COc1ccc(-c2cn3c(C)c(C(=O)NCCN4CCOCC4)sc3n2)cc1
  Anthrax LT inh = -3%
  SmPrx2 inh = >57
smiles: c1cc(-c2noc(CC3CCCCC3)n2)ccn1
  Anthrax LT inh = -6%
  SmPrx2 inh = >57
smiles: COc1ccccc1NC(=O)C1=C(C)NC2=C(C(=O)CCC2)C1c1ccc(C)o1 (centres undefined)
  Anthrax LT inh = -7%
  SmPrx2 inh = >57
smiles: O=C(Oc1ccc2c(c1)OCO2)c1cc2c(s1)CCC2
  Anthrax LT inh = ?
  SmPrx2 inh = >57
smiles: COc1ccc(OC)c(NC(=O)c2cc(-c3ccc(C)cc3O)n[nH]2)c1
  Anthrax LT inh = 6%
  SmPrx2 inh = >57
smiles: CCCS(=O)(=O)N1CCC(C(=O)N2CCC(Cc3ccccc3)CC2)CC1
  Anthrax LT inh = 5%
  SmPrx2 inh = >57
smiles: O=C(NCCCN1CCN(c2ccccc2F)CC1)C1CCC(=O)N1C1CCCC1 (centres undefined)
  Anthrax LT inh = -1%
  SmPrx2 inh = >57

smiles: Cc1cc(Cl)c(S(=O)(=O)Nc2ccccn2)cc1OCC(N)=O
  Anthrax LT inh = 5%
  SmPrx2 inh = >57
smiles: C[C@@H](CCC[C@@H]1SC[C@H]2NC(=O)N[C@H]12)C(=O)O
  Anthrax LT inh = -8%[8 µM]
  SmPrx2 inh = >57
smiles: O=S1(=O)CCN(c2ccccc2CC(c2c[nH]c3ccccc23)c2c[nH]c3ccccc23)CC1
  Anthrax LT inh = ?
  SmPrx2 inh = >57
smiles: CC(=NCCN1CCOCC1)C1=C(O)c2ccccc2C1=O
  Anthrax LT inh = 0%
  SmPrx2 inh = /
smiles: COc1cccc(OCc2nnc(SC)n2C)c1
  Anthrax LT inh = -9%
  SmPrx2 inh = >57
smiles: CC1CN(C(=O)c2cccc(S(=O)(=O)N3CCOCC3)c2)CC(C)O1 (centres undefined)
  Anthrax LT inh = -19%
  SmPrx2 inh = >57
smiles: N#CCCCSc1nnnn1-c1cccc(Cl)c1
  Anthrax LT inh = -4%
  SmPrx2 inh = >57
smiles: CCNC(=O)c1sc(=S)n(CC)c1N
  Anthrax LT inh = -10%
  SmPrx2 inh = >57
smiles: CCOC(=O)C1CCN(S(=O)(=O)Cc2ccc(Cl)cc2)CC1
  Anthrax LT inh = -10%
  SmPrx2 inh = >57
smiles: COc1ccc(Cl)cc1NC(=O)COC(=O)CCNC(C)=O
  Anthrax LT inh = 7%
  SmPrx2 inh = >57
smiles: COc1ccccc1N1CCN(C(=O)c2cc3cc(Br)ccc3oc2=O)CC1
  Anthrax LT inh = -9%
  SmPrx2 inh = >57
smiles: COc1cccc(CC(NC(C)=O)C(=O)NC2CCN(c3nc(C)cc(C)c3C#N)CC2)c1OC (centres undefined)
  Anthrax LT inh = 6%
  SmPrx2 inh = >57
smiles: COc1ccc(C(=O)Oc2ccc(C(C)=O)cc2)c(OC)c1
  Anthrax LT inh = -2%
  SmPrx2 inh = >57
smiles: COC(=O)c1c(-c2cccs2)csc1NC(=O)c1cccnc1
  Anthrax LT inh = ?
  SmPrx2 inh = >57
smiles: CCNS(=O)(=O)c1ccc(C)cc1
  Anthrax LT inh = 1%
  SmPrx2 inh = /
smiles: O=C1CC(=O)N(c2ccc3c(c2)OCO3)C(=O)N1
  Anthrax LT inh = -2%
  SmPrx2 inh = /

Source: PubChem BioAssay (National Center for Advancing Translational Sciences (NCATS))

Some of the compounds tested; the hit share may differ from the screen's.
